Bioassay records (PubChem BioAssay)
Beta cell apopt: beta cell apoptosis inhibition | INS-1E cytokine-induced death, ATP luminescence, 48 h; percent of positive-control rescue, neutral wells zero | AID 435005 | protection from apoptosis, % (concentration not given with the values) | 300,000 compounds, 0.8% hits;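 active means all replicates at 75% or more, or half of them and the mean; inconclusive means half reach 75% but not the mean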;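 further: 0% = cytokine-treated negative control wells and 100% = positive control rescue; higher means more ATP so stronger rescue from cytokine killing; wells of about 40 µL received 100 nL stock; the first replicate is given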
RanGTP-Impb inh: inhibitors of RanGTP-importin-beta interaction, primary screen, biochemical, FRET, CFP-Ran, YFP-importin-beta, homogeneous. 300,000 compounds, 1.1% hits. cell-free CFP-Ran/YFP-importin-beta FRET ratio. inhibition, % (no concentration beside the values);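 active means most replicates above 15%; inconclusive means exactly half above 15%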;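 further: 0% = DMSO wells and 100% = Ran loaded with GDP instead of GTP; wells of about 40 µL received 100 nL stock; the first replicate is given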
LANA-H2B inh: blocks KSHV LANA binding to histone H2A/H2B; 320,000 compounds, 0.6% hits; AID 2629; inhibition, % (concentration not given with the values); cell-free LANA-H2A/H2B peptide, fluorescence polarization; Q9QR71; in the data active means inhibition mostly above about 10%, no sharp cut-off; inactive means mostly below about 6.7%;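 further: stock transfer was 7.5 nL into about 10 µL; 0% = median of vehicle wells and 100% = median of positive control wells; one replicate is shown; the record names a cut of 25% in any replicate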
Target sequence (Q9QR71 whole entry, looked up): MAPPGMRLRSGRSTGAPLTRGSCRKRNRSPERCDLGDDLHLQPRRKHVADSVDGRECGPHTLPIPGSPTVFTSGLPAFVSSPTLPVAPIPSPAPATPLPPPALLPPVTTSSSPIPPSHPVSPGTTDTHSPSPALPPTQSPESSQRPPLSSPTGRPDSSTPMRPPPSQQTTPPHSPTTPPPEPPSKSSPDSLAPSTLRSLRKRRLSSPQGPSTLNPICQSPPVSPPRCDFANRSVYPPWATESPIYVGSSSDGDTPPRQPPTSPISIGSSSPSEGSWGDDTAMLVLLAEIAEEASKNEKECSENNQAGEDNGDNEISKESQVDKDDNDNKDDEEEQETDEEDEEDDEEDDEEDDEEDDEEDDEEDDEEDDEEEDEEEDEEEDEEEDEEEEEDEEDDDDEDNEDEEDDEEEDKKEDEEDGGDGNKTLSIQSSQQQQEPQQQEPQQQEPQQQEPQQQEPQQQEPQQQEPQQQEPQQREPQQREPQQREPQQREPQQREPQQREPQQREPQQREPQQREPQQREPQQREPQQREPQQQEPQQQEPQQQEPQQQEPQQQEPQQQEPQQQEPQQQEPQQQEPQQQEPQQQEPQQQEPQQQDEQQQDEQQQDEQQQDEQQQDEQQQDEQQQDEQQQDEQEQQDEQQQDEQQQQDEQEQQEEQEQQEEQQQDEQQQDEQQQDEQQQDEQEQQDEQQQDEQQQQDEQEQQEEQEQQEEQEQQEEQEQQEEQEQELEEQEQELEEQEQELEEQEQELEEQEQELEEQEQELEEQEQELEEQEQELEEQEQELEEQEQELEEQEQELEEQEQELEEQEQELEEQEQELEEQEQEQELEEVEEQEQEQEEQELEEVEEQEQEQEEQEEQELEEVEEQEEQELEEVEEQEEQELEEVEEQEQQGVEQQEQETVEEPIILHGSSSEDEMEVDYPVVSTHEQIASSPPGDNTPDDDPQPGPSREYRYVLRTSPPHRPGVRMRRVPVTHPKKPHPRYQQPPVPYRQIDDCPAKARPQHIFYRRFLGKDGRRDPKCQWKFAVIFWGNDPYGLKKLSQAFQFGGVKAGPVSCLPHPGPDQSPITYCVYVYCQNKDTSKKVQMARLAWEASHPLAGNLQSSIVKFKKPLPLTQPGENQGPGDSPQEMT
UCH37 DUB inh: blocks the human deubiquitinase UCH37. inhibition, % (test concentration not listed). Q9Y5K5. 330,000 compounds, 0.33% hits. purified proteasome/UCH37, Ub-AMC cleavage fluorescence;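 active means mean of two replicates above 20%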;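 further: 0% = compound-free wells with enzyme and 100% = wells lacking proteasome; stock transfer was 100 nL into about 20 µL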
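Material: human UCH37 enzyme supplied as purified proteasome complex / Amount: 0.15 nM proteasome as dispensed / Buffer or medium: pH 7.4 Tris-HCl (50 mM) with ovalbumin, ATP-MgCl2, DTT / Times: preincubation 30 min, reaction 25 min, room temperature / Technique: AMC fluorescence from Ub-AMC cleavage, excitation 355 nm, emission 460 nm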
Calb FLC: C. albicans growth modulation with fluconazole; growth inhibition, % (concentration not given with the values); AID 1979; 300,000 compounds, 0.57% hits; C. albicans CaCi-2 (fluconazole-resistant clinical isolate) + fluconazole, Alamar Blue growth, 48 h;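 active means most replicates above 75%; inconclusive means exactly half above 75%; inactive means most below 75%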;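 further: all wells also contain fluconazole at 8 µg/ml as a sub-toxic cotreatment; 0% = median of DMSO wells and 100% = median of geldanamycin control wells; wells of about 8 µL received 7.5 nL stock; the first replicate is given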
Bfl-1 A1 inh: inhibitors of the anti-apoptotic protein A1, read as caspase activation | MEF A1-2A-BIM cells, Caspase-Glo 3/7 luminescence, 3 h; percent of clofoctol response, vehicle zero | caspase activation, % (test concentration not listed) | 330,000 compounds, 0.066% hits | AID 2462;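 active means over half of replicate activation scores above 10%, or exactly half above 10 with the replicate mean above 10; inconclusive means replicate mean below 10 yet half the replicates above 10; inactive means over half of replicates below 10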;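 further: wells of about 30 µL received 50 nL stock; many hits fall short of the cut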
T cruzi inh: T. cruzi replication inhibition; T. cruzi beta-gal in NIH3T3, luminescence, 90 h; inhibition, % (concentration not given with the values); 300,000 compounds, 1.4% hits; AID 1885;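 active means mean inhibition across valid replicates above about 55%, limit read from the data; inconclusive means mean below that limit but half or more replicates reach it; inactive means mean below it, under half of replicates reach it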;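 further: signal also drops with host cell toxicity which is not excluded here; 0% = plate median of DMSO wells and 100% = zero luminescence signal; higher percent means less beta-gal luminescence so fewer parasites; stock transfer was 50 nL into about 50 µL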
Beta2AR agonist: activates human beta-2 adrenergic receptor causing internalization. response, % (concentration not given with the values). Am2.2-beta2AR cells, FAP receptor internalization, flow cytometry; reference of the scale not given here. 340,000 compounds, 0.43% hits. P07550;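 active means response above a set limit, near 3 SD of response in nonfluorescent compounds, cut at about 42% in these data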;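 further: stock transfer was 100 nL into about 11 µL; a reference agonist was the positive control; negative values mostly stem from fluorescent compounds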
* = called active by the depositor; ? = inconclusive; · = not tested or not shown.

SMILES	Beta cell apopt	RanGTP-Impb inh	LANA-H2B inh	UCH37 DUB inh	Calb FLC	Bfl-1 A1 inh	T cruzi inh	Beta2AR agonist
CC(C)(C)OC(=O)N1Cc2ccccc2C[C@H]1C(=O)NC1CCCC1	-7.0	2.8	-3.0	1.2	-7.5	0.5	9.9	-2.3
Cc1ccccc1NC(=O)Cc1nc(COC(=O)CCNS(=O)(=O)c2ccccc2)cs1	-2.4	7.3	1.8	-0.5	-5.0	-0.7	5.9	-0.3
Cc1ccc(C(=O)c2cc([N+](=O)[O-])ccc2N2CCOCC2)cc1C	-3.7	-2.2	-4.2	5.5	1.3	0.2	-50.6	-0.9
CCCNC(=O)c1cc2ccccc2c(=O)o1	-4.1	1.5	-1.2	-19.6	-10.6	-0.3	-1.2	-3.1
NS(=O)(=O)c1ccc(CNC(=O)CNC(=O)c2ccc(Br)o2)cc1	-4.0	0.2	0.0	2.7	3.5	-0.1	-2.1	6.8
O=C(c1ccc(F)cc1)N1CCC(N2CCOCC2)CC1	-3.0	3.1	2.2	0.5	0.9	-0.1	0.8	-6.4
CCn1c(SCC(=O)N(C)CCC#N)nc2cc(S(=O)(=O)N3CCOCC3)ccc21	2.2	1.3	1.9	-0.2	2.2	0.0	-4.2	-9.5
O=C1c2ccncc2C(=O)N1CNc1ccc(Cl)cc1	-1.3	0.6	-0.5	2.4	-7.5	0.6	-18.6	0.8
CCC(=O)N1CCN(c2ccc(NC(=S)NC(=O)C(C)C)cc2)CC1	-2.4	5.2	-3.8	5.6	0.6	0.1	-3.0	-0.2
O=S(=O)(c1cccc(Cl)c1Cl)N1CCN(C(=S)NCCCN2CCOCC2)CC1	-2.6	25.4*	-2.4	1.1	18.6	-0.6	-5.3	-7.4

Retrieved by structure from the list above:
SMILES	Beta cell apopt	RanGTP-Impb inh	LANA-H2B inh	UCH37 DUB inh	Calb FLC	Bfl-1 A1 inh	T cruzi inh	Beta2AR agonist
CCn1c(SCC(=O)N(C)CCC#N)nc2cc(S(=O)(=O)N3CCOCC3)ccc21	2.2	1.3	1.9	-0.2	2.2	0.0	-4.2	-9.5
CCC(=O)N1CCN(c2ccc(NC(=S)NC(=O)C(C)C)cc2)CC1	-2.4	5.2	-3.8	5.6	0.6	0.1	-3.0	-0.2
O=S(=O)(c1cccc(Cl)c1Cl)N1CCN(C(=S)NCCCN2CCOCC2)CC1	-2.6	25.4*	-2.4	1.1	18.6	-0.6	-5.3	-7.4
CCCNC(=O)c1cc2ccccc2c(=O)o1	-4.1	1.5	-1.2	-19.6	-10.6	-0.3	-1.2	-3.1
Cc1ccc(C(=O)c2cc([N+](=O)[O-])ccc2N2CCOCC2)cc1C	-3.7	-2.2	-4.2	5.5	1.3	0.2	-50.6	-0.9
O=C1c2ccncc2C(=O)N1CNc1ccc(Cl)cc1	-1.3	0.6	-0.5	2.4	-7.5	0.6	-18.6	0.8
NS(=O)(=O)c1ccc(CNC(=O)CNC(=O)c2ccc(Br)o2)cc1	-4.0	0.2	0.0	2.7	3.5	-0.1	-2.1	6.8

Other results follow.
SMILES	Beta cell apopt	RanGTP-Impb inh	LANA-H2B inh	UCH37 DUB inh	Calb FLC	Bfl-1 A1 inh	T cruzi inh	Beta2AR agonist
COc1ccc(C(C(=O)NC(C)(C)C)N(C(=O)CCC(=O)Nc2cc(C)on2)c2ccc3c(c2)OCCO3)cc1 (stereo not given)	1.5	4.3	-6.1	1.3	-6.1	-0.7	9.6	-6.5
CC(=O)N1CCC2(CC1)C(C#N)=C(N)Oc1n[nH]c(C)c12	-0.4	7.9	8.0	1.6	-7.8	1.0	-9.3	4.0
CNC(=S)Nc1ccc(OC(F)(F)F)cc1	-3.2	-2.4	1.0	-1.4	-7.5	0.5	-8.4	-4.2
CC1Cc2ccccc2N1CC(=O)NC(=O)NC(C)(C)C (stereo not given)	-2.3	-0.3	-5.7	1.0	-7.3	0.8	7.4	-1.2
C#CCOCCOCCOCCNc1nc(N2CCN(C(=O)[C@H](CCCCN)n3cc([C@@H](N)CO)nn3)CC2)nc(N2CCN(C(=O)[C@H](Cc3cc4ccccc4[nH]3)n3cc([C@@H](N)CC(C)C)nn3)CC2)n1	-2.7	1.8	1.2	5.2	5.7	2.9	2.3	·
Nc1nc(NC(=O)c2ccccc2)nn1-c1ccccc1	-3.5	2.9	-1.5	2.0	2.0	0.2	0.7	-0.1
CCOc1ccccc1C1c2cc3c(cc2OC(C)(N2CCCC2)C1C)OCO3 (stereo not given)	-7.7	1.6	-4.1	4.4	-1.8	0.5	-2.8	0.2
O=C(NCc1ccc(OC(F)(F)F)cc1)C1CCC(=O)N(C2CC2)C1 (stereo not given)	·	-4.5	·	-0.8	1.1	·	3.1	-5.8
CC(C)C(NC(=O)OCc1ccccc1)C(=O)OCC(=O)NC1CC1 (stereo not given)	0.9	2.2	0.4	5.4	15.0	?	9.9	-5.1
CC(=O)Nc1ccc2c(c1)CCc1ccccc1-2	-3.9	7.2	3.3	4.7	0.6	-0.8	-3.0	17.0
COCC(C)NCc1ccc(OC)c(Br)c1 (stereo not given)	-5.8	2.5	2.0	4.2	-2.1	0.1	-8.1	-12.2
CCc1nnc(NC(=O)c2c(C)nn(-c3ccccc3)c2Cl)s1	-2.3	20.1*	3.4	1.8	6.8	-0.4	3.6	2.9
COc1ccccc1NS(=O)(=O)c1cccc(C(=O)N2CCN(C(=O)c3ccco3)CC2)c1	0.9	·	1.7	2.6	·	0.0	·	-4.1
CCN1C(=O)C(=O)N(CC(=O)N2CCC(C)Sc3ccccc32)C1=O (stereo not given)	-1.0	·	-3.1	-1.1	·	1.1	·	-2.3
CC(C)NS(=O)(=O)c1ccc(NC(=S)NC(=O)c2cccc([N+](=O)[O-])c2)cc1	2.8	-0.2	·	5.7	4.4	0.1	6.3	2.7
CN(C(=O)CSc1nnc(-c2n[nH]c3ccccc23)o1)c1ccccc1	4.4	0.9	-4.3	3.2	36.5	-2.5	-2.5	9.7
Cc1ccc(NC(=O)NC(=O)CN2CCCC2c2ccc3c(c2)OCCO3)cc1C (stereo not given)	3.5	·	-3.1	0.5	·	0.5	·	3.9
CCCCc1ncc(CN2CCN(Cc3ccc(C)cc3)C(CCO)C2)[nH]1 (stereo not given)	3.1	-2.5	2.7	1.6	-20.2	0.3	7.3	-4.3
N#Cc1c(N)c(C(=O)c2ccccc2)n2ccccc12	-2.8	8.1	5.4	9.2	3.2	0.1	-8.1	-13.6
O=C(Cc1ccc([N+](=O)[O-])cc1)Nc1ccc(Cl)cc1	-4.6	-3.0	-0.4	4.1	-4.7	-0.5	23.9	0.2
CCCn1cccc(C(=O)Nc2ccc(OC)cc2)c1=O	-2.1	4.9	8.2	7.5	-7.0	-0.2	-3.0	-6.3
CCOc1ccccc1NC1=CC(=O)CC(c2ccccc2)C1 (stereo not given)	3.7	24.4*	-1.1	5.8	10.7	1.0	8.1	-10.1
Cc1ccc(N(CC(=O)NC2CCCC2)C(=O)CCC(=O)Nc2nccs2)c(C)c1	-2.4	-1.8	-0.8	1.4	-9.8	0.1	15.1	-0.7
CN(c1ccccc1C(=O)O)S(=O)(=O)c1ccc2c3c(cccc13)C(=O)N2	-0.1	·	3.3	-2.2	·	1.5	·	-6.1
CCCc1nn(C(=O)c2ccccc2)c2c1C(=O)CC(C)(C)C2	-6.9	-0.2	-1.4	3.8	-11.8	-0.6	3.5	2.4
COC(=O)c1nn(-c2ccc(OC)cc2)ccc1=O	-9.2	1.0	1.4	-9.0	17.4	1.4	-1.8	-4.8
COc1ccc(NC(=O)N2CCc3ccccc32)cc1	9.2	-0.5	4.8	-0.9	5.0	-8.7	-8.4	-3.2
COCc1nc2ccccc2n1CCOc1ccccc1OC	-3.9	6.2	-4.8	6.1	-8.3	0.3	-6.0	0.4
COc1cc(C(=O)NCCC(=O)NCCCN2CCCCC2)cc(OC)c1OC	-4.9	4.1	-0.4	4.4	24.3	-0.3	-23.3	7.4
Cc1ccc(S(=O)(=O)N2CCC(=O)N(C(COCc3ccc(Cl)c(Cl)c3)Cc3ccccc3)CC2)cc1 (stereo not given)	17.0	2.6	0.8	3.1	9.0	-1.5	-13.8	·
O=C(CCCN1C(=O)c2ccccc2C1=O)NCCC1=CCCCC1	-1.9	-2.4	2.6	0.5	3.2	-0.2	1.9	9.9
Cc1cccc(NC(=O)CCC(=O)N/N=C/c2cccnc2)c1	-1.8	2.0	-1.0	·	6.3	-0.6	-4.6	4.3
Cc1[nH]c2c(Cl)cccc2c1CCNC(=O)C1CCCCC1C(=O)OCC(F)(F)F (stereo not given)	-11.5	3.8	·	2.1	-19.1	-0.4	11.2	5.8
O=C(Nc1ccccc1[N+](=O)[O-])c1cccnc1Cl	-8.2	-1.9	2.6	1.7	2.7	0.5	-17.2	-3.2
CCc1nc(C#N)c(N2CCOCC2)o1	1.0	-1.6	-4.7	1.2	-8.7	-0.1	-1.4	-3.8
CCOC(=O)c1cccc(NC(=O)CSc2nnc(CNc3ccc(C)cc3)n2CC)c1	-10.3	5.3	-8.3	3.4	-4.7	-0.8	10.7	1.6
CCOC(=O)c1nn(-c2ccccc2C)c2nc(Nc3ccccc3)cc(=O)n12	-1.2	7.7	1.5	-20.9	17.5	-0.8	0.9	6.7
CN1CCN(CC#CC(C)(O)C2CC3C=CC2C3)CC1 (stereo not given)	-5.0	1.4	1.6	22.9*	4.9	0.7	1.9	-3.1
CCOC(=O)c1c(C)[nH]c(C2=NNC(=NC3CC3)SC2)c1C	0.7	?	-0.1	5.9	-22.1	0.3	-9.2	-9.0
CCOC(=O)Cc1nnc(-c2ccccc2)o1	-6.0	?	-6.8	1.3	-5.4	-0.3	-9.0	5.1
NC(=O)CSc1oc(-c2ccco2)nc1S(=O)(=O)c1ccc(Br)cc1	-7.8	5.4	-1.9	7.2	2.7	0.4	-11.5	-12.6
O=C(CSc1nc(C2CC2)nc2ccccc12)N1CCc2ccccc2C1	-11.9	-1.7	-1.4	·	-16.3	-0.6	24.3	·
CC(CN(C)Cc1ccccc1)OC(=O)c1cccc(F)c1 (stereo not given)	-4.1	-1.5	2.8	3.4	-5.1	0.1	-3.2	2.5
CS(=O)(=O)NNC(=O)C1Cc2c(ccc3ccccc23)O1 (stereo not given)	-12.3	4.7	-1.8	0.2	-3.3	0.8	-5.2	-3.7
CSCCC(NC(=O)c1cc([N+](=O)[O-])ccc1Cl)C(=O)O (stereo not given)	-8.7	3.4	0.8	0.9	-3.0	0.5	-12.4	-1.7
CCc1cc2c(=O)c(-c3nc4ccccc4n3C)coc2c(CN2CCC(C)CC2)c1O	·	3.2	·	-79.2	-3.9	·	-5.2	7.4
